Source: PubChem (National Center for Advancing Translational Sciences (NCATS))
NS1 function inh = qHTS Assay for Inhibitors of Influenza NS1 Protein Function | S. cerevisiae slowed by influenza A NS1, growth recovery by OD600 | Potency, µM (series often up to 46.1 µM), without a hit: top-dose activity, positive = more growth | 270,000 compounds, 0.4% hits; also: actives are rising curves; nearly all actives have a fitted effect of over 50% in size
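In this qHTS, NS1 from influenza A is expressed in budding yeast, where it slows growth. Cells are switched from glucose to 2% galactose medium (pH 6.0, -URA), treated with compound, and growth recovery is read at OD600.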
Marburg entry inh = qHTS for inhibitors of binding or entry into cells for Marburg Virus | Marburg virus pseudotyped entry inhibition, cell reporter; control for the full effect not named in the record; about a third of the inactives were read at about 46 µM | Potency, µM (series often up to 37.8 µM), for the others: top-dose activity change, negative = inhibition, most hits filed as inhibitors | 300,000 compounds, 1.8% hits; active = well fitted inhibition curve with a large enough effect; inconclusive = small, poorly fitted or top-dose-only effect, or effect the other way; inactive = flat fitted curve, though single readings scatter; tested in HEK293 cells; about a fifth of its hits are not listed in these tables; also: % is scaled to controls: 0 for no effect and ±100 for the full control effect; luciferase read-out
Cruzain Triton = qHTS Assay for Promiscuous and Specific Inhibitors of Cruzain (with detergent). Potency, µM, for the others: max response, negative = inhibition, usual class: inhibitors. Cruzipain (Trypanosoma cruzi), P25779. 200,000 compounds, 0.43% hits. purified cruzain, Z-FR-AMC fluorescence, 0.01% Triton; active = well fitted curve in the direction sought with a large enough effect; inconclusive = small, poorly fitted or top-dose-only effect, or another doubt; inactive = no such curve, though single readings can be large; an effect the other way counts as inactive or inconclusive;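 also: plate controls were neutral wells for no effect and buffer without enzyme for full effect; nearly all actives have a fitted effect of over 40% in size; top concentration of the series not given in the record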
Target sequence (P25779 123-467 limits assumed): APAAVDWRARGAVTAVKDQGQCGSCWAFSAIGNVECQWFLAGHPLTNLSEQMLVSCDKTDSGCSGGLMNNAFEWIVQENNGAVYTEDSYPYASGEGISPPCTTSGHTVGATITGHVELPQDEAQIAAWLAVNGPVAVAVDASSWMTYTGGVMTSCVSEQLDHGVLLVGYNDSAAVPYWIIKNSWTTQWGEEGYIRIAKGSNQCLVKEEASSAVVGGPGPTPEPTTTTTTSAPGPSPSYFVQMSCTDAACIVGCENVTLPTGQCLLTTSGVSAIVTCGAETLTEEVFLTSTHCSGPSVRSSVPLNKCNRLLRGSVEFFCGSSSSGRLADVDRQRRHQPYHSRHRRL
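Steps: dispense cruzain (1.5 nM final) in acetate buffer pH 5.5 with DTT and 0.01% Triton X-100; pin-transfer compounds; incubate 15 min RT; add Z-FR-AMC (2 uM final); read fluorescence every 30 s, using the 60 s intensity change.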
Cruzain inh noDet = qHTS Assay for Promiscuous and Specific Inhibitors of Cruzain (without detergent); 200,000 compounds, 2.3% hits; Cruzipain (Trypanosoma cruzi), P25779; Potency, µM, for inactives: max response, negative = inhibition, actives largely listed as inhibitors; purified cruzain, Z-FR-AMC fluorescence, no detergent; active = well fitted curve in the direction sought with a large enough effect; inconclusive = small, poorly fitted or top-dose-only effect, or another doubt; inactive = no such curve, though single readings can be large; an effect the other way counts as inactive or inconclusive;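 also: plate controls were enzyme without inhibitor for no effect and buffer without enzyme for full effect; nearly all actives have a fitted effect of over 40% in size; top concentration of the series not given in the record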
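Purified cruzain at 1.5 nM, pre-incubated 15 min with compound at room temperature in 100 mM sodium acetate pH 5.5, 5 mM DTT, 0.00005% Triton X-100. Reaction started with 2 uM Z-FR-AMC; AMC fluorescence increase over 60 s gives rate.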
SARS PLP yeast = qHTS of Yeast-based Assay for SARS-CoV PLP. S. cerevisiae expressing SARS-CoV PLpro, growth rescue; control for the full effect not named in the record. Potency, µM (doses to about 32.9 µM), for the others: at the top dose activity, positive = growth rescue. 330,000 compounds, 0.19% hits. AID 485353, 2010; also: 0% is about no effect; nearly all actives have a fitted effect of over 55% in size; growth read by luminescence after 48 h
RE007 growth inh = qHTS Assay for Inhibitors of the HIV-1 protein Vpr | S. pombe RE007 Vpr strain, BacTiter-Glo ATP luminescence, 24 h; control for the full effect not named in the record | Potency, µM (series often up to 92.2 µM), inactives show at the top dose activity change, negative = less growth | 360,000 compounds, 0.21% hits | AID 651644, 2012; active = well fitted falling curve with a large enough effect; inconclusive = small, poorly fitted or top-dose-only effect; inactive = no such curve, though single readings can be large or run the other way;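 also: % is scaled to controls: 0 for no effect and ±100 for the full control effect; nearly all actives have a fitted effect of over 50% in size; the assay follows cell death caused by Vpr and the record does not say whether a fall means rescue or toxicity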
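Fission yeast RE007 carrying one integrated HIV-1 vpr copy, seeded at OD 0.01 in PMG+AL medium with 23 nL pinned compound. Grown 24 h at 30 degrees; viability read by BacTiter-Glo luminescence after 5 min.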
Lassa entry inh = qHTS for Inhibitors of binding or entry into cells for Lassa Virus; Potency, µM (series often up to 37.9 µM), for the others: at the highest dose activity change, negative = inhibition, most hits filed as inhibitors; Lassa virus pseudotype entry inhibition, cell reporter; control for the full effect not named in the record; AID 540256, 2011; 300,000 compounds, 1.2% hits; active means well fitted inhibition curve with a large enough effect; inconclusive means small, poorly fitted or top-dose-only effect, or effect the other way; inactive means flat fitted curve, though single readings scatter; tested in HEK293 cells; also: % is scaled to controls: 0 for no effect and ±100 for the full control effect; nearly all actives have a fitted effect of over 50% in size; luciferase read-out
2A StopGo = High Throughput Screening for Foot and Mouth Disease Virus Antivirals | Potency, µM (highest dose often 57.9 µM), without a hit: top-dose signal change, negative = less light | 410,000 compounds, 1.2% hits | AID 1159524, 2015 | human cells with a luciferase reporter of 2A StopGo recoding; control for the full effect not named in the record; active = well fitted falling curve with a large enough effect; inconclusive = small, poorly fitted or top-dose-only effect; inactive = no such curve, though single readings can be large or run the other way; tested in HEK293T cells; also: % is scaled to controls: 0 for no effect and ±100 for the full control effect; nearly all actives have a fitted effect of over 45% in size; luciferase light after 4 h
Starred values were filed as active, the others as inactive; ? = inconclusive; · = no result given; & = joins results of further samples; [ ] = another dose, or the depositor's remark. Unless noted, calls follow the shape of the dose curve; as a rule, active means well fitted rising curve with a large enough effect; inconclusive means small, poorly fitted or top-dose-only effect; inactive means no such curve, though single readings can be large or run the other way. Potency is read from the fitted curve at half-maximal effect.

SMILES	NS1 function inh	Marburg entry inh	Cruzain Triton	Cruzain inh noDet	SARS PLP yeast	RE007 growth inh	Lassa entry inh	2A StopGo
Cc1nnsc1Sc1ccccn1	·	-1%[46.1 µM]	·	·	-7%	10%	9%[46.1 µM]	26%
CCSc1nnc(NC(=O)c2ccco2)s1	-20%	2%&8%	-2.4%	-1%	-13%	-30%	8%	29%
Nc1nn(-c2ccccc2)nc1C(=O)OCc1ccc(Cl)cc1	·	15%[46.1 µM]	-14%	3%	·	·	-20%[46.1 µM]	6%
CC(=O)Nc1cccc(NC(=O)CSc2ncc(C(=O)Nc3ccc(F)cc3)c(=O)n2C)c1	·	?	·	·	1%	-12%	-26%	?
CSc1nc(O)cc(=O)n1-c1ccc(F)cc1	·	8%[46.1 µM]	·	·	0%	2%	16%	-4%
CCc1ccc(NC(=O)c2cnn(-c3ccccc3)c2-n2cccc2)cc1	·	?	0.9%	-5%	·	·	-38%[46.1 µM]	-28%
O=C(Nc1cccc(C(F)(F)F)c1)N(Cc1ccc(Cl)cc1)CC(O)C(F)(F)F (configuration not stated)	-74%	?	-6.7%	9%	-31%	13%	?	?
CCNc1ncnc2c1cnn2C1CCCO1 (configuration not stated)	·	-18%[46.1 µM]	·	·	·	-8%	-4%[46.1 µM]	6%
Cc1oc2c(cc(NS(=O)(=O)c3ccc(Br)cc3)c3ccccc32)c1C(=O)OCc1ccccc1	·	-9%[46.1 µM]	-2.0%	-27%	·	·	-9%[46.1 µM]	19%
CSc1nc2c(c(=O)[nH]c(=O)n2C)n1C/C=C(\C)Cl	5%	8%	2.3%	2%	14%	14%	-1%	12%
COc1ccc(-c2csc(Nc3ccc(O)cc3)n2)cc1	24%	?	·	·	-1%	15%	?	28%
CC1OC1c1ccc(-c2ccc(C3OC3C)cc2)cc1 (configuration not stated)	·	?	·	·	·	0%	-17%[46.1 µM]	39%[activator]
O=C(Nc1cccc(-c2nc3ncccc3o2)c1)c1sc2ccccc2c1Cl	-8%	?	2.1%	-7%	4%	-17%	?	14%
O=C(COc1ccccc1)Nc1ccc2nc(SCCOc3ccccc3)sc2c1	·	-8%[46.1 µM]	-0.8%	-9%	·	·	-15%[46.1 µM]	-21%
Cc1cc(=O)oc(C)c1C(=O)NCCNC(=O)c1c(C)cc(=O)oc1C	6%	?	-1.0%	4%	0%	9%	2%	-15%
Brc1cccc(OCCSc2ncccn2)c1	-14%	?	·	·	0%	-13%	-18%	7%
O=C(Nc1ccc(OCC(=O)N2CCOCC2)cc1)c1cccc(Cl)c1	5%	?	·	·	?	7%	-4%	12%
CC1=C(C(=O)Nc2ccccn2)C(c2ccccc2)n2ncnc2N1 (configuration not stated)	3%	4%	0.4%	-7%	3%	8%	7%	13%
Clc1ccc(-c2nnc(-c3ccc4ccccc4c3)o2)cc1	·	?	·	·	·	-5%	?	96%[activator]
CC1Cc2ccccc2N1C(=O)c1cc2cccnc2n(C)c1=O (configuration not stated)	·	21%	·	·	-2%	1%	8%	35%[activator]
CC1(C)Cc2c(c(N3CCOCC3)nc3sc4c(NCc5ccccc5)nnnc4c23)CS1	16%	-11%	-7.1%	-25%	3%	8%	?	5%
Cc1ccc(S(=O)(=O)N2CCCC(C(=O)NCCc3ccc(S(N)(=O)=O)cc3)C2)cc1 (configuration not stated)	1%	-2%[46.1 µM]	·	·	2%	2%	·	-13%
COC(=O)CSc1ncnc2c1cnn2-c1ccc(C)cc1C	·	6%	·	·	-8%	-4%	16%	-6%
CC1CCCC(C)N1C(=O)COC(=O)c1cncc(Br)c1 (configuration not stated)	·	-2%[46.1 µM]	·	·	0%	0%	19%[46.1 µM]	-14%
COC(=O)c1ccccc1NC(=O)c1cc2ccccn2n1	·	·	-1.5%	-16%	·	·	8%[46.1 µM]	23%

A section from the list above:
SMILES	NS1 function inh	Marburg entry inh	Cruzain Triton	Cruzain inh noDet	SARS PLP yeast	RE007 growth inh	Lassa entry inh	2A StopGo
Cc1nnsc1Sc1ccccn1	·	-1%[46.1 µM]	·	·	-7%	10%	9%[46.1 µM]	26%
CCSc1nnc(NC(=O)c2ccco2)s1	-20%	2%&8%	-2.4%	-1%	-13%	-30%	8%	29%
Nc1nn(-c2ccccc2)nc1C(=O)OCc1ccc(Cl)cc1	·	15%[46.1 µM]	-14%	3%	·	·	-20%[46.1 µM]	6%
CC(=O)Nc1cccc(NC(=O)CSc2ncc(C(=O)Nc3ccc(F)cc3)c(=O)n2C)c1	·	?	·	·	1%	-12%	-26%	?
CSc1nc(O)cc(=O)n1-c1ccc(F)cc1	·	8%[46.1 µM]	·	·	0%	2%	16%	-4%
CCc1ccc(NC(=O)c2cnn(-c3ccccc3)c2-n2cccc2)cc1	·	?	0.9%	-5%	·	·	-38%[46.1 µM]	-28%
O=C(Nc1cccc(C(F)(F)F)c1)N(Cc1ccc(Cl)cc1)CC(O)C(F)(F)F (configuration not stated)	-74%	?	-6.7%	9%	-31%	13%	?	?
CCNc1ncnc2c1cnn2C1CCCO1 (configuration not stated)	·	-18%[46.1 µM]	·	·	·	-8%	-4%[46.1 µM]	6%
Cc1oc2c(cc(NS(=O)(=O)c3ccc(Br)cc3)c3ccccc32)c1C(=O)OCc1ccccc1	·	-9%[46.1 µM]	-2.0%	-27%	·	·	-9%[46.1 µM]	19%

Compound profiles (already shown).
Cc1ccc(S(=O)(=O)N2CCCC(C(=O)NCCc3ccc(S(N)(=O)=O)cc3)C2)cc1 (configuration not stated) reads NS1 function inh = 1%; Marburg entry inh = -2%[46.1 µM]; Cruzain Triton = ·; Cruzain inh noDet = ·; SARS PLP yeast = 2%; RE007 growth inh = 2%; Lassa entry inh = ·; 2A StopGo = -13%
Clc1ccc(-c2nnc(-c3ccc4ccccc4c3)o2)cc1 reads NS1 function inh = ·; Marburg entry inh = ?; Cruzain Triton = ·; Cruzain inh noDet = ·; SARS PLP yeast = ·; RE007 growth inh = -5%; Lassa entry inh = ?; 2A StopGo = 96%[activator]

(more compounds)
SMILES	NS1 function inh	Marburg entry inh	Cruzain Triton	Cruzain inh noDet	SARS PLP yeast	RE007 growth inh	Lassa entry inh	2A StopGo
Cc1cc(C)cc(NC(=O)NCC2CCN(Cc3cc(C)ccc3C)CC2)c1	-10%	?	-0.4%	6%	3%	9%	21%[46.1 µM]	?
COCCn1c(SCC(=O)N2CCCc3ccccc32)nc2ccccc2c1=O	-36%	?	0.4%	29%	5%	28%	-21%	-4%
CCOC(=O)c1ccc(NS(=O)(=O)c2ccc3c(c2)CCN3C(=O)CC)cc1	·	?	-8.0%	26%	·	·	-6%[46.1 µM]	8%
COCC(COS(N)(=O)=O)C(C)C (configuration not stated)	-7%	·	·	·	-7%	9%	·	-22%
Cc1ccc(NS(=O)(=O)c2cc(NC(=O)c3cc(=O)[nH]c(=O)[nH]3)ccc2Cl)c(C)c1	-9%	0%	·	·	1%	-5%	·	9%
COc1cc(C(=O)COC(=O)Cc2cnc3sccn23)cc(OC)c1OC	-1%	21%	1.5%	-4%	-1%	-5%	?	4%
O=S1(=O)C=C(Oc2ccc(F)cc2)c2ccccc21	-2%	-13%	2.9%	-1%	-4%	2%	0%	22%
O=C(NCc1ccc2c(c1)OCO2)c1cc(Cl)ccc1Cl	-13%	·	·	·	4%	6%	·	35%[activator]
COc1ccc(/C(C)=N/NC(=O)c2cc(-c3cccnc3)nc3ccccc23)cc1	1%	-26%	-0.7%	12%	5%	-13%	0%	32%[activator]
O=c1c2ccccc2nc(-c2ccoc2)n1CCc1ccccc1	-48%	?	-9.9%	-17%	-7%	-19%	?	?
O=C(O)c1ccc(/C=N/N2CCN(C3c4ccccc4-c4ccccc43)CC2)cc1	0%	·	·	·	1%	17%	·	?
CC(=O)N1CC(C)Sc2ccc(S(=O)(=O)NCc3ccccc3Cl)cc21 (configuration not stated)	3%	·	·	·	0%	1%	·	10%
Cc1ccccc1NC(=O)NCCCN1CCCC1	1%	-1%	0.4%	2%	-2%	0%	0%	7%
CCN(CC)C(=O)CSc1nc(-c2ccccc2)ccc1C#N	-5%	5%	·	·	2%	-10%	12%	0%
COc1ccccc1NS(=O)(=O)c1cc(NC(=O)c2cc3ccccc3oc2=O)ccc1C	7%	-12%	1.1%	?	-7%	18%	12%	0%
CCCC1=Nc2cc(C(=O)NCCCN3CCN(C)CC3)ccc2Sc2ccccc21	0%	·	·	·	24%	-15%	·	-2%
Cc1cc(C)n2cnnc2n1	0%	-1%[46.1 µM]	·	·	0%	-19%	?	8%
Cc1noc(C)c1COC(=O)c1cc2c(C)nn(-c3ccc(F)cc3)c2s1	-1%	2%	1.1%	-4%	1%	5%	5%	-14%
O=C(NC(=S)Nc1ccc(NC(=O)c2ccccc2)cc1)c1ccc(F)cc1	14%	-12%[46.1 µM]	·	·	-4%	21%	2%[46.1 µM]	-12%
O=C(c1ccccc1)c1nnc(-c2ccncc2)o1	-4%	15%	2.4%	-9%	-9%	-24%	-2%	38%[activator]
Cc1nc(NC(=O)Nc2ccc(Cl)cc2)sc1C	·	-26%[46.1 µM]	·	·	-1%	-3%	22%	50%[activator]
CC1CCCC(C)N1CCCNC(=O)Cn1ncc2c([nH]c3ccccc32)c1=O (configuration not stated)	4%	3%[46.1 µM]	·	·	-19%	-10%	12%[46.1 µM]	3%
COc1ccc(/C=C/C2=NC(=C\N(C)C)/C(=O)O2)cc1	-63%	?	-13%	3%	-6%	-29%	5%	12%
O=C(NC1CCCCC1)C1CCN(c2nccs2)CC1	-13%	26%[46.1 µM]	-1.5%	5%	-3%	-2%	-2%	-7%
O=C1COc2ccc(C(=O)COC(=O)C3CC(O)CN3S(=O)(=O)c3ccc(Cl)cc3)cc2N1 (configuration not stated)	·	6%	·	·	-1%	1%	?	-16%
